HCMV NEC inh – inhibitors of HCMV UL50-UL53 nuclear egress complex interaction; HTRF UL50-UL53 interaction, normalized percent inhibition; inhibition, % (concentration not given with the values); actives 0.15% (n = 190,000); AID 1918969;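 active = both replicates at 50% or more, plus weaker picks with an unusually low signal ratio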;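 note: stock transfer was 100 nL into about 20 µL; 0% = negative control wells and 100% = wells with untagged competitor protein; inactives centre near -12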
Active calls of the source: *; & = joins results of further samples. Only part of the results is shown; the hit share may differ from the screen's.

SMILES | HCMV NEC inh
CC1C=CC=CC=CC=CC=CC=CC=CC(OC2OC(C)C(O)C(N)C2O)CC2O[C@@](O)(CC(O)CC(O)C(O)CCC(O)CC(O)CC(=O)OC(C)C(C)C1O)CC(O)C2C(=O)O (some centres not stated) | -6.8
COc1ccc(OCc2ncc(-c3ccc4c(c3)OCCCO4)s2)cc1 | 5.0
O=C(/C=C/c1ccco1)N1CCCc2ccccc21 | -14.7
Cc1ccc(-c2csc(NC(=O)C(C)C)n2)c(C)c1 | -26.8
O=C(Oc1cccnc1)c1ccc(Cl)c(Cl)c1 | -28.3
CCCOc1cccc2c1CCN(Cc1ccccc1)C2=O | 0.6
COc1cc(/C=N/S(=O)(=O)CCc2ccccc2)ccc1O | 5.9
O=C(O)CSc1nc(-c2cccc(Cl)c2)no1 | -18.6
COc1cccc(OC)c1-c1ccc(C(=O)Nc2cccnc2)o1 | -2.4&-2.4
Brc1ccc(-c2cn3ccsc3n2)cc1 | -1.8
CC(=O)Nc1ccc(-n2nncc2-c2ccccc2)cc1 | 11.9
CC(=O)c1c(C)nn(CC(=O)Nc2ccnn2C2CCCCC2)c1C | 11.5
COC(=O)C12CC3CC(CC(N)(C3)C1)C2 | -20.8
CC1(C)C2CCC1(C)C(NC(=O)CCC(=O)O)C2 (configuration not stated) | -12.6
C=CC(=O)Nc1ccc2ncnc(Nc3ccc(OCc4cccc(F)c4)c(Cl)c3)c2c1 | 1.4
O=C(CSc1nccn1-c1ccccc1)Nc1nccs1 | -11.0
CCOC(=O)c1ccc(NC(=O)CCn2c(=O)sc3ccccc32)cc1 | -4.4
Cc1nc(NC(=O)NCC2COc3ccccc3O2)nn1C(C)C (configuration not stated) | 42.7&42.7
COc1ccccc1C(=O)NC1CCS(=O)(=O)C1 (configuration not stated) | -11.6
CSc1nn2ccc(-c3cccc(C(F)(F)F)c3)nc2c1C#N | -2.3
CC(CCN1CCC(Cn2cc(CCO)nn2)CC1)CC(C)(C)C (configuration not stated) | -26.6
COc1ccccc1C(=O)Nc1ccc(-c2csc(C)n2)cc1 | -8.2
CCc1nc(-c2ccccc2)c2ccccn12 | -37.3
Cc1ccc(C(=O)Nc2cccc(C(F)(F)F)c2)cc1Nc1cncc(C(N)=O)c1 | -5.3&-4.5&-1.8&-2.4
Cc1ccc(CC2(O)CCN(CCOc3ccc(O)cc3)CC2)cc1 | 2.1
COc1ccc(C(=O)CSc2ncccn2)cc1 | -22.9
CN1CCN(C(=O)c2cc3cc(Cl)ccc3[nH]2)CC1 | -25.8
O=C(O)c1c(Nc2nnc(-c3ccncc3)s2)sc2c1CCCC2 | -14.1
C[C@H]1NC(=O)[C@H]2CN(C(=O)Oc3ccc(Cl)cc3)CCN2C1=O | -8.8
CCCCC[C@@H](O)/C=C/[C@H]1[C@H](O)CC(=O)[C@@H]1C/C=C\CCCC(=O)O | -25.6&-25.6
N#Cc1ccc(N2CCCN(C(=S)NC3CCCC3)CC2)nc1 | -4.5
COc1cc(C=CC(=O)N2CCN(CC(=O)N3CCCC3)CC2)cc(OC)c1OC | -38.3
O=C1NCCN(C(=O)c2ccc(F)c(F)c2)C1Cc1ccccc1 (configuration not stated) | -7.8
CC(C)c1ccc(C(N)CC(=O)O)cc1 (configuration not stated) | -0.6
CCC1(CC)CC1C(=O)N1CCC(n2cc(C3CCCCC3)nn2)CC1 (configuration not stated) | -18.4
Cc1nnc(SCC(=O)Nc2ccccc2)n1N | -15.3
O=C1OC(CN2CCOCC2)CN1N=Cc1ccc([N+](=O)[O-])o1 (configuration not stated) | -176.2
Cc1ccc(Nc2nc(N)nc(-c3ccc(C(=O)N(C)C)cc3)n2)cc1 | -2.7
O=C(Nc1nc2ccccc2s1)c1cc(Cl)sc1Cl | -12.0
Cc1cc(-c2cnn(C)c2)nc(N)n1 | 39.3&39.3

A draw from above in order of count of non-hydrogen atoms, low to high:
SMILES | HCMV NEC inh
CC(C)c1ccc(C(N)CC(=O)O)cc1 (configuration not stated) | -0.6
Cc1nnc(SCC(=O)Nc2ccccc2)n1N | -15.3
O=C(Nc1nc2ccccc2s1)c1cc(Cl)sc1Cl | -12.0
O=C1OC(CN2CCOCC2)CN1N=Cc1ccc([N+](=O)[O-])o1 (configuration not stated) | -176.2
O=C1NCCN(C(=O)c2ccc(F)c(F)c2)C1Cc1ccccc1 (configuration not stated) | -7.8
CCC1(CC)CC1C(=O)N1CCC(n2cc(C3CCCCC3)nn2)CC1 (configuration not stated) | -18.4

The results go on:
SMILES | HCMV NEC inh
CC(=O)N[C@@H](CSC/C=C(\C)CC/C=C(\C)CCC=C(C)C)C(=O)O | -15.7&-15.7&-5.6
CSCCC(C(=O)O)N1C(=O)/C(=C/c2ccc(O)cc2)SC1=S (configuration not stated) | -64.3
O=c1c(-c2ccc3c(c2)OCCCO3)coc2cc(O)cc(O)c12 | 1.8
N#CC1=C(N)OC2=C(C(=O)CCC2)C1Cc1ccccc1 (configuration not stated) | -19.2
NS(=O)(=O)c1cc(Cl)c(Cl)c(S(N)(=O)=O)c1 | -7.1&3.7
Cc1ccc(SCC(=O)N(C)C2CCS(=O)(=O)C2)cc1 (configuration not stated) | 2.3
Brc1ccc(NC2=NCCCCC2)cc1 | -17.7
CC(C)COP(=O)(c1ccc(N(C)C)cc1)C(O)c1ccc(N(C)C)cc1 (configuration not stated) | -3.4
Cc1ccccc1NC(=O)CSC1=C(C#N)C(c2ccco2)C2=C(CC(C)(C)CC2=O)N1 (configuration not stated) | -5.2
O=C([C@@H]1C[C@H](CN2CCOCC2)CN(Cc2ccccc2)C1)N1CCCC1 | -9.8

Quoted at random: five compounds from above
SMILES | HCMV NEC inh
Cc1ccc(SCC(=O)N(C)C2CCS(=O)(=O)C2)cc1 (configuration not stated) | 2.3
O=c1c(-c2ccc3c(c2)OCCCO3)coc2cc(O)cc(O)c12 | 1.8
CC(=O)N[C@@H](CSC/C=C(\C)CC/C=C(\C)CCC=C(C)C)C(=O)O | -15.7&-15.7&-5.6
Cc1ccccc1NC(=O)CSC1=C(C#N)C(c2ccco2)C2=C(CC(C)(C)CC2=O)N1 (configuration not stated) | -5.2
Brc1ccc(NC2=NCCCCC2)cc1 | -17.7

Looked up above:
Reading for O=c1c(-c2ccc3c(c2)OCCCO3)coc2cc(O)cc(O)c12 under HCMV NEC inh: 1.8
Reading for Cc1ccc(SCC(=O)N(C)C2CCS(=O)(=O)C2)cc1 (configuration not stated) under HCMV NEC inh: 2.3
Reading for CC(C)COP(=O)(c1ccc(N(C)C)cc1)C(O)c1ccc(N(C)C)cc1 (configuration not stated) under HCMV NEC inh: -3.4
Reading for Brc1ccc(NC2=NCCCCC2)cc1 under HCMV NEC inh: -17.7

(further entries)
SMILES | HCMV NEC inh
COC(=O)C(C)Sc1nc2c([nH]c3ccccc32)c(=O)n1-c1cccc(Cl)c1 (configuration not stated) | -3.6
COc1ccccc1-c1cc(Nc2cccc(CS(N)(=O)=O)c2)ncn1 | 0.8
CC(=O)Nc1ccccc1OCC(N)=O | -2.8
COc1cccc(NC(=O)Cc2ccccc2)c1 | -6.0
CCn1c2ccccc2c2cc(N)ccc21 | -4.4
O=c1oc2ccc(Br)cc2cc1-c1cn2ccccc2n1 | -19.7
Cc1cc(NC(=O)c2ccc(C(=O)c3ccccc3)cc2)no1 | 0.8
O=C(c1cccs1)N(Cc1ccccc1)c1ccccn1 | -12.8
Cc1ccc(S(=O)(=O)N2CCCC(C(=O)N(C)c3ccccc3)C2)cc1 (configuration not stated) | -17.2
CCCC[C@@H](C=O)NC(=O)[C@H](CC(C)C)NC(=O)[C@H](CC(C)C)NC(C)=O | -0.4
O=C1/C(=C/c2cccs2)SC(=S)N1c1cc(Cl)cc(Cl)c1 | 0.7&-7.9
CCCCC[C@H](O)/C=C/[C@@H]1c2cc(CCCCC(=O)O)n(-c3ccccc3)c2C[C@H]1O | -21.7&-21.7
CCn1c(C(C)NC(=O)c2ccccc2)nc2ccccc21 (configuration not stated) | -5.3
NC1=NC(=O)C(=Cc2ccc(-c3ccc(Cl)cc3)o2)S1 | -10.7
COc1ccc(-c2n[nH]c(C(F)(F)F)c2-c2cnn(-c3ccccc3)c2)c(O)c1C | 2.4
CCCCCCCCCCCCCCCCCCCCCCCC(=O)NCCS(=O)(=O)O | -32.6&-32.6
COc1cccc(C(N)CC(=O)O)c1 (configuration not stated) | 4.5
CCN1CCN(Cc2ccc(NC(=O)c3ccc(C)c(NC(=O)c4csc(-c5ccncc5)n4)c3)cc2C(F)(F)F)CC1 | -15.5
CNC(=O)Nc1nc2cccnc2s1 | -5.7
C=C1C[C@]23C[C@@]1(O)CC[C@H]2[C@@]12C=C[C@H](O)[C@@](C)(C(=O)O1)[C@H]2[C@@H]3C(=O)O | -2.5
CC(C)C(=O)NC(C)C(c1cccs1)N1CCOCC1 (configuration not stated) | -14.7
Cc1sc2nc(SCCC(=O)NC3CCCCC3)[nH]c(=O)c2c1C | -5.1
Cc1cc(C)c(C)c(OCC(O)CNC(C)C)c1 (configuration not stated) | -4.2
CC(=O)OCOC(c1cc([N+](=O)[O-])ccc1Oc1ccc(Br)cc1)P(=O)(OCOC(C)=O)OCOC(C)=O (configuration not stated) | -44.1
CCOc1ccc(CC(=O)NCCn2ccc3ccccc32)cc1 | 7.3
O=C(O)c1oc2ccccc2c1-n1cccc1 | -5.4
COC1CC2CCC(C)C(O)(O2)C(=O)C(=O)N2CCCCC2C(=O)OC(C(C)CC2CCC(O)C(OC)C2)CC(=O)C(C)C=C(C)C(O)C(OC)C(=O)C(C)CC(C)C=CC=CC=C1C (configuration not stated) | -14.4&-13.8&-15.8&-10.2
COc1ccc(C2=N/C(=C/c3ccco3)C(=O)O2)cc1OC | 19.2
CCOC(=O)c1nn(-c2ccc(Cl)cc2)cc1O | -11.2
CCC(=O)Nc1nc2ccc3nc(SC)sc3c2s1 | 8.5
OCCCCCNc1nccc(-c2cnn(-c3ccc(F)cc3)c2)n1 | -16.1

Of the compounds above, these contain a nitro group on carbon:
SMILES | HCMV NEC inh
O=C1OC(CN2CCOCC2)CN1N=Cc1ccc([N+](=O)[O-])o1 (configuration not stated) | -176.2
CC(=O)OCOC(c1cc([N+](=O)[O-])ccc1Oc1ccc(Br)cc1)P(=O)(OCOC(C)=O)OCOC(C)=O (configuration not stated) | -44.1

Assay outcomes deposited in PubChem BioAssay by ICCB-Longwood Screening Facility, Harvard Medical School.
